Source: PubChem
CDC25B CDK2 inh – human CDC25B-CDK2/CyclinA binding inhibition; AID 1259370; 94,000 tested, 0.72% active; P30305+P24941; HTRF CDC25B-CDK2/CyclinA binding, anti-His/anti-Flag; hits give high values; z-score (no concentration beside the values);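 further: score is relative to mean and SD of negative controls; strong numbers were not always called active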
HIV TAR-Tat – HIV-1 TAR-Tat binding disruption; z-score (no concentration beside the values); HIV-1 TAR RNA, Tat peptide displacement FRET; hits give high values; 100,000 tested, 0.6% active;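 further: score is relative to mean and SD of negative controls; some compounds called inactive have numbers as strong as hits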
Active calls of the source: *; · = no result given.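 How the source made its calls: active means z-score from 3 up in half or more of its runs; inactive means the rest.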

SMILES | CDC25B CDK2 inh | HIV TAR-Tat
Cn1nc(C(=O)NC2CCCCC2)c2c1-c1ccccc1OC2 | 0.83 | 1.8
O=C(CCc1nc2cccnc2n1Cc1cccs1)Nc1ccc(F)c(F)c1 | -0.61 | -0.17
CC(NS(=O)(=O)c1ccc(F)cc1)C(c1cccs1)N1CCOCC1 (stereo unspecified) | -0.01 | ·
COc1ccccc1/C=C/c1nc(C#N)c(N2CCCC2)o1 | -1.2 | 0.66
COc1ccc(OCc2nn3c(-c4ccccc4Cl)nnc3s2)cc1 | -0.41 | 2.4
CCN1CCC(O)(C2CCN3Cc4ccccc4N=C23)CC1 (stereo unspecified) | · | -0.23
COc1ccc(C2/C(=C(\O)c3ccccc3)C(=O)C(=O)N2CCCn2ccnc2)cc1 (stereo unspecified) | 0.61 | -0.53
Cc1cccc2cc3c(nc12)N(C(=O)C(C)C)CC3 | -0.42 | -0.95
O=C(Nc1ccc2nc3n(c(=O)c2c1)CCCC3)c1cncc(Br)c1 | -0.3 | 0.11
CCC1CN(C(=O)Nc2ccccc2)c2ccccc2O1 (stereo unspecified) | · | 1.1
O=c1c2cc3c(cc2nc2sc(NCc4ccc5c(c4)OCO5)nn12)OCO3 | -0.94 | ·
CCOc1ccc2ncc(S(=O)(=O)c3ccccc3)c(N3CCCC3)c2c1 | 1.7 | 0.76
CC(C(=O)N1CCN(Cc2ccc3c(c2)OCO3)CC1)n1sc2ccccc2c1=O (stereo unspecified) | -0.91 | 2.4
O=C1c2cccc3cccc(c23)N1Cc1ccc(F)cc1Cl | -0.14 | -1.1
C=CCN1C(C(=O)c2ccccc2)=C(NC(=O)C(C)(C)C)c2ccccc2S1(=O)=O | -1.4 | -0.09
CCOc1ccc(OCC)c(NS(=O)(=O)c2cc3c(cc2C)NC(=O)CO3)c1 | · | 2.1
O=C(Nc1ccc(S(=O)(=O)Nc2ccccc2)cc1)N1CCCC1 | · | 0.15
O=C(Nc1cccc(F)c1)N1CCC2(CC1)Nc1ccccc1-n1cccc12 | · | -0.24
CCOC(=O)c1sc(=S)n(-c2ccc3c(c2)OCO3)c1N | -0.93 | ·
Cc1nn(-c2ccccc2)c(-n2cccc2)c1CNC(=O)Nc1cccc(Cl)c1 | -1.1 | 2.7
Cn1ccc2cc(S(=O)(=O)N3CCC(C(=O)NCc4ccco4)CC3)ccc21 | · | -0.08
CCOC(=O)C1=C(C)NC2=C(C(=O)CC(C)(C)C2)C1c1ccc(O)cc1 (stereo unspecified) | · | -2
CCC(Oc1nsnc1N1CCOCC1)C(=O)Nc1cc(OC)ccc1OC (stereo unspecified) | · | 1.9
NCc1nnc(SCc2ccccc2)o1 | -0.61 | 1.2
Cc1nc2sccn2c(=O)c1S(=O)(=O)N1CCC(Cc2ccccc2)CC1 | · | 0.98
O=C(O)C1CCCN(c2cnc3ccccc3n2)C1 (stereo unspecified) | · | -0.3
CN(C)C(=O)Nc1ccccc1 | 0.09 | ·
Cc1[nH]c2ccccc2c(=O)c1CN(C)C | 1.1 | 0.95
Cc1ccc(OCC(=O)OCc2cc(=O)n3nc(-c4cccs4)sc3n2)cc1C | · | -3.9
O=C(O[C@@H]1Cc2c(O)cc(O)cc2O[C@@H]1c1cc(O)c(O)c(O)c1-c1c([C@H]2Oc3cc(O)cc(O)c3C[C@H]2OC(=O)c2cc(O)c(O)c(O)c2)cc(O)c(O)c1O)c1cc(O)c(O)c(O)c1 | · | 29*
NC1=NC(c2cccc(O)c2)n2c(nc3ccccc32)N1 (stereo unspecified) | -0.8 | 0.24
CCN1C=C(C(=O)OC)C(c2cccc(C)c2)C(C(=O)OC)=C1 | -3.1 | ·
c1ccc(CNc2nc3ccccc3n3nnnc23)nc1 | 0.4 | 0.68
Nc1c(-c2nc(-c3ccccc3Cl)no2)nnn1-c1ccccc1F | · | -0.05
OC(c1ccccc1)(c1ccccc1)c1nc2ccccc2[nH]1 | -0.65 | 0.48
C#CCN1C(=O)C(O)(CC(=O)c2cccc(Br)c2)c2ccccc21 (stereo unspecified) | -0.29 | ·
CCOc1ccc(N2COc3ccc(OCC)cc3C2)cc1 | -1.6 | ·
Cc1ccc(C)c(S(=O)(=O)NCc2ccc3c(c2)OCO3)c1 | 0.84 | 0.85
O=C(O)CSCC(=O)NCc1ccc2c(c1)OCO2 | -1.4 | ·
Cn1c(=O)c2c(nc(Cl)n2CCc2ccccc2)n(C)c1=O | -0.53 | ·

Given in CSV form: part of the list above.
Structure,CDC25B CDK2 inh,HIV TAR-Tat
CCC(Oc1nsnc1N1CCOCC1)C(=O)Nc1cc(OC)ccc1OC (stereo unspecified),·,1.9
NCc1nnc(SCc2ccccc2)o1,-0.61,1.2
Cc1nc2sccn2c(=O)c1S(=O)(=O)N1CCC(Cc2ccccc2)CC1,·,0.98
O=C(O)C1CCCN(c2cnc3ccccc3n2)C1 (stereo unspecified),·,-0.3
CN(C)C(=O)Nc1ccccc1,0.09,·
Cc1[nH]c2ccccc2c(=O)c1CN(C)C,1.1,0.95
Cc1ccc(OCC(=O)OCc2cc(=O)n3nc(-c4cccs4)sc3n2)cc1C,·,-3.9
O=C(O[C@@H]1Cc2c(O)cc(O)cc2O[C@@H]1c1cc(O)c(O)c(O)c1-c1c([C@H]2Oc3cc(O)cc(O)c3C[C@H]2OC(=O)c2cc(O)c(O)c(O)c2)cc(O)c(O)c1O)c1cc(O)c(O)c(O)c1,·,29*
NC1=NC(c2cccc(O)c2)n2c(nc3ccccc32)N1 (stereo unspecified),-0.8,0.24
CCN1C=C(C(=O)OC)C(c2cccc(C)c2)C(C(=O)OC)=C1,-3.1,·
c1ccc(CNc2nc3ccccc3n3nnnc23)nc1,0.4,0.68
Nc1c(-c2nc(-c3ccccc3Cl)no2)nnn1-c1ccccc1F,·,-0.05
OC(c1ccccc1)(c1ccccc1)c1nc2ccccc2[nH]1,-0.65,0.48
C#CCN1C(=O)C(O)(CC(=O)c2cccc(Br)c2)c2ccccc21 (stereo unspecified),-0.29,·
CCOc1ccc(N2COc3ccc(OCC)cc3C2)cc1,-1.6,·
Cc1ccc(C)c(S(=O)(=O)NCc2ccc3c(c2)OCO3)c1,0.84,0.85
O=C(O)CSCC(=O)NCc1ccc2c(c1)OCO2,-1.4,·
Cn1c(=O)c2c(nc(Cl)n2CCc2ccccc2)n(C)c1=O,-0.53,·

(next part)
SMILES | CDC25B CDK2 inh | HIV TAR-Tat
O=C(CSc1nc2ccccc2c(=O)[nH]1)N1CCc2ccccc21 | · | 14*
O=C(c1cnn(-c2ccccc2)c1-n1cccc1)N1CCN(c2cccc(Cl)c2)CC1 | -1.9 | -0.1
Cc1nn2c3cc(N4CCCC4)ccc3nc2c2ccccc12 | -0.52 | -0.1
c1nnc2c3c4c(sc3ncn12)CCC4 | 2.8 | ·
COC(=O)CN1C(C(=O)c2ccccc2)=C(OC(=O)c2ccc(C)cc2)c2ccccc2S1(=O)=O | -1 | 1.2
CCOC(=O)c1c(NC(=O)c2cc(=O)c3cc(C)ccc3o2)sc(C)c1C | -0.46 | -0.94
O=C(Cn1c(=O)n(Cc2ccc3c(c2)OCO3)c(=O)c2oc3ccccc3c21)NCc1ccccc1 | · | 1.1
CC(CC(=O)NC1CCCCC1)S(=O)(=O)c1ccc2c(c1)CCN2C(=O)C1CC1 (stereo unspecified) | · | 0.2
C=CCOC(=O)C1=C(C)Nc2nc(SCC=C)[nH]c(=O)c2C1c1ccc(Cl)cc1 (stereo unspecified) | -0.06 | 0.39
Cc1ccc(Nc2nc(C)cc(C)c2C#N)cc1 | -0.2 | -0.01
CCOCCCNC(=O)C1Cc2cc(S(=O)(=O)N3CCCC3)ccc2N1C(C)=O (stereo unspecified) | · | 1.9
CCSc1nc2c(c(=O)[nH]1)C(c1ccncc1)C(C(=O)OC)=C(C)N2 (stereo unspecified) | -0.2 | ·
CCc1ccc2[nH]c3nc4ccccc4nc3c2c1 | 1.2 | -4.3
Fc1ccccc1Nc1ncc2c(n1)CCN(Cc1ccc3c(c1)OCCO3)C2 | · | 0.97
CC(C)c1ccc(-c2c(N3CCCCC3)c(=O)c2=O)cc1 | · | 3
COc1ccc(OCC(=O)N(Cc2sccc2C)C2CCS(=O)(=O)C2)cc1 (stereo unspecified) | -1.1 | 0.99
CCN(CC)CCN(C(=O)c1ccco1)c1nc2cc(C)cc(C)c2s1 | · | 1.4
O=C(CSc1nc2ccc(N3C(=O)c4ccccc4C3=O)cc2s1)NCc1ccco1 | 1.7 | ·
NS(=O)(=O)c1cc2c(cc1C(F)(F)F)NCNS2(=O)=O | -1.2 | -0.77
O=C(NC1CC1)c1ccc2c(c1)nc1n2CCCCC1 | · | 0.9
COc1ccc(-c2csc(-c3c(N)c(C(=O)c4ccc(OC)c(OC)c4)n4ccccc34)n2)cc1 | -1.3 | 1.4
COc1ccc(CCNc2ncnc3onc(-c4ccc(F)cc4)c23)cc1OC | · | 0.01
CCn1ncc(C2=NOC(C(=O)N3CCCc4ccccc43)C2)c1C (stereo unspecified) | -0.8 | -0.42
CCC(=O)N1c2ccccc2CC1C(=O)NCCCN1CCCC1=O (stereo unspecified) | · | 0.78
COc1ccccc1-n1nnc(-c2nc(-c3ccc(F)cc3)no2)c1N | · | 2
COc1ccccc1OCc1nc(C#N)c(N2CCN(C)CC2)o1 | 0.02 | 0.92
COc1ccc(-n2c(-c3cc(-c4ccccc4)sc3N)n[nH]c2=S)cc1 | -2.2 | ·
CCC(COc1nnnc2ccccc12)NC(=O)C1CCN(S(C)(=O)=O)CC1 (stereo unspecified) | -2.1 | -0.86
O=C(CCCn1c(=O)c2cccn2c2cccnc21)NCc1ccccn1 | · | 0.31
Cc1nnc2ccc(N3CCC(C)CC3)nn12 | -0.89 | 0.48
CSCCC(NC(=O)c1ccc(C(F)(F)F)cc1)C(=O)NNC(=O)c1ccccc1Cl (stereo unspecified) | -1.9 | ·
O=c1c2c(nc3c(-c4cccc(Br)c4)c[nH]n13)CCCC2 | -1.9 | ·
Cc1ccc(Nc2c(-c3ccsc3)nc3cccc(C)n23)cc1 | -2.7 | ·
CCOC(=O)c1noc2nc(C)nc(Nc3ccc(Cl)cc3)c12 | · | -0.22
Cc1cc2nc(C)n(CC(=O)N(CC(C)C)CC(C)C)c2cc1C | -1.4 | 0.77
COc1cccc(N2C(=O)c3cccnc3C2Nc2cccc(Br)c2)c1 (stereo unspecified) | · | 1.6
O=C(Nc1cccc(OC2=NS(=O)(=O)c3ccccc32)c1)c1cccs1 | 0.71 | 0.94
Cc1c(NC(=O)Nc2ccc3c(c2)OCCO3)c(=O)n(-c2ccccc2)n1C | -1.4 | -0.63
CCNc1nc(NCC)nc(Oc2ccc(OCC)nn2)n1 | -0.95 | -0.24
CCS(=O)(=O)N1CCC2(CC1)OC(=O)C(C)=C2C(=O)NCCN1CCOCC1 | · | 1.6
O=c1c2ccccc2nc(/C=C/c2ccco2)n1Cc1ccccc1 | -0.95 | -5.8
O=C1CSC(c2ccccn2)N1Cc1ccc(F)cc1 (stereo unspecified) | -1.8 | ·
Cc1cccn2c(=O)c(C(=O)NCC(C)O)c(O)nc12 (stereo unspecified) | -1.4 | 0.65
Cc1nc(CSc2n[nH]c(=O)n2Cc2ccccc2)cs1 | -2.4 | ·
CCOc1cc2c(=O)[nH]c3c(C(=O)NCc4ccco4)sc(=S)n3c2cc1OCC | · | 2.3
CCOC(=O)/C(=N/O)C1=NN=C(N)SC1 | -2 | ·
CC(C)CN1C(=O)c2ccccc2C(C(=O)NC(C)CCc2ccco2)C1c1cccs1 (stereo unspecified) | · | 2.6
OCCN1CCn2c(nc3cccc(Cl)c32)C1 | 0.26 | 0.52
CCCNC(=O)NC(=O)c1cnccc1C(F)(F)F | -3.2 | ·
COc1ccc(-c2nc(=S)c3c([nH]2)Oc2c(C)cccc2C3)cc1O | -0.01 | 1.3
COc1ccc(Cc2nnc(-c3ccccc3)o2)cc1 | -1.6 | -0.56
CC(C)(C)C(=O)Nc1nnc2n1CCS2 | · | 0.03
Cc1ccccc1Nc1nc2ccc(Cl)cc2n2cnnc12 | -0.53 | -0.14
O=C1CC(c2cccs2)CC2=C1C(c1coc3ccc(Cl)cc3c1=O)Nc1ccccc1N2 (stereo unspecified) | -2.5 | ·
Cn1nc(C2CC2)cc1NC(=O)CN1C(=O)c2ccccc2C1=O | 0.12 | ·
O=C(c1ccco1)n1c(=O)oc2ccccc21 | · | 1
COc1cc(C(=O)NCc2ccc(OCCN(C)C)cc2)cc(OC)c1OC | · | 2.3
CC(Nc1ncnc2c1oc1ccccc12)C(=O)O (stereo unspecified) | 0.08 | 1.2
Cc1ccc2snc(C(N)=O)c2c1 | -0.74 | 2
O=C(O)c1c[nH]c2c(Cl)cccc2c1=O | -0.15 | -0.38
(more compounds)
SMILES | CDC25B CDK2 inh | HIV TAR-Tat
CCOc1ccc(C2CC(=O)NC3=C2C(=O)CCC3)cc1OCC (stereo unspecified) | -1.8 | 0.97
Cc1c(C(=O)N2CCN(c3ccc(F)cc3)CC2)sc2nc3n(c(=O)c12)CCCC3 | · | 1.2
CCc1n(CC(O)COc2ccccc2OC)c2ccccc2[n+]1C (stereo unspecified) | -0.35 | 2.2
Cn1cnc2c1c(=O)n(CCNCCCO)c(=O)n2C | -0.94 | ·
Cc1nc(-c2ccccc2)no1 | -1.4 | ·
N#Cc1c(-c2ccccc2)nc(SCc2cccc(Br)c2)[nH]c1=O | 1.6 | 0.48
O=S(=O)(c1ccc(Cl)s1)N1CCN(c2ncccn2)CC1 | -0.22 | ·
CC(C)CN(CCNC(=O)Cn1ncc2c3ccccc3n(C)c2c1=O)CC(C)C | -0.61 | 1.6
O=c1c(N2CCN(CCc3ccccc3)CC2)csc2ccccc12 | · | -0.86
CCOc1ccc2ncc(S(=O)(=O)c3ccc(Cl)cc3)c(N3CCN(CC)CC3)c2c1 | -0.89 | 0.52
COc1ccc(C2CC(=O)C3=C(C2)Nc2ccccc2NC3c2ccc(OC)cc2OC)cc1 (stereo unspecified) | 0.22 | -0.57
COCCNC(=O)C1CCCN(S(=O)(=O)c2ccc3c(c2)oc(=O)n3C)C1 (stereo unspecified) | -0.48 | ·
